RecA splice inh: Mtb RecA intein splicing inhibitors, primary screen, biochemical, fluorescence, HTS | cell-free RecA intein splicing | 0.75% of 290,000 active | inhibition, %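 (about 9 µM by stock and volumes)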 | Protein RecA (Mycobacterium tuberculosis (strain ATCC 25618 / H37Rv)), P9WHJ3; in the data active = inhibition above about 30%; inconclusive = no clear call, values can overlap the other calls;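 note: 0% = vehicle wells and 100% = reference inhibitor control wells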
Target sequence (P9WHJ3 whole entry, looked up, canonical isoform): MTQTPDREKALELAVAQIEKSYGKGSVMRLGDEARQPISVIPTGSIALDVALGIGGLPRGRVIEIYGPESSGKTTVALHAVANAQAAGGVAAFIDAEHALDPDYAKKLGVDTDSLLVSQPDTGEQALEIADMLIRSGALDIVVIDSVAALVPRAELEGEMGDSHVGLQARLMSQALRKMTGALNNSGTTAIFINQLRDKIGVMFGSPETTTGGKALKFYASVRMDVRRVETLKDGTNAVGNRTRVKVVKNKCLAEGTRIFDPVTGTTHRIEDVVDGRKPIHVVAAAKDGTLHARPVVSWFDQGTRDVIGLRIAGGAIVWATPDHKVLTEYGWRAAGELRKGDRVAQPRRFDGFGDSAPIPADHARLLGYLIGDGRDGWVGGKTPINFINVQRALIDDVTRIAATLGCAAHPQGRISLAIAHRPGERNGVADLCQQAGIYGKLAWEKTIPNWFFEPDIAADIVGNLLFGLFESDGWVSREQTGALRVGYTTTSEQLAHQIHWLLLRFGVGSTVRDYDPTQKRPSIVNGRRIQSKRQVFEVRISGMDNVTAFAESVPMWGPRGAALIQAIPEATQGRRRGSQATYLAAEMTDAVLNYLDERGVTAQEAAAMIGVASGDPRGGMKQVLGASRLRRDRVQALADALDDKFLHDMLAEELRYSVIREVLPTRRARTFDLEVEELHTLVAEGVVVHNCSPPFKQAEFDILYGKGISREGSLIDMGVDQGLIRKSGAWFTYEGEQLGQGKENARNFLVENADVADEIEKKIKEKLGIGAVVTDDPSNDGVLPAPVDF
YopH PTP inh: YopH tyrosine phosphatase inhibitors, primary screen, biochemical, fluorescence Ex485/Em525. YopH tyrosine phosphatase [Yersinia enterocolitica]. inhibition, %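 (about 10 µM by stock and volumes)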. 0.16% of 140,000 active. AID 898, 2007;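 active = inhibition of 50% or more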;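 note: controls were vehicle for no effect and minimum signal wells for full effect; inactives centre near -20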
Mtb H37Rv: M. tuberculosis H37Rv growth inhibitors, H37Rv strain (AID 1626); inhibition, % at 10 µM; hits with a dose series show IC50 in µM; M. tuberculosis H37Rv growth inhibition; higher % means a stronger effect; 0.95% of 220,000 active;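 active = confirmed in a dose series; inconclusive = inhibition above 80% but not taken into the dose series; inactive = below 80% or under 30% at every dose of the series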;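 note: bacteria incubated seven days before Alamar blue readout; 0% = bacteria only wells and 100% = bacteria with antibiotic wells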
Arbovirus inh: antivirals against arbovirus infection, primary screen, cell-based, full library, 10K replicate subset; arbovirus infection cell-based antiviral screen; inhibition, % at 10 µM; 0.37% of 200,000 active; AID 1251, 2008;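 active = inhibition from about 30%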;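 note: bluetongue infection of BSR cells; cell survival read as ATP light after 72 h; 0% = infected wells without compound and 100% = uninfected wells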
Mtb bLac sens: beta-lactam sensitization of Mtb H37Rv, H37Rv; M. tuberculosis H37Rv growth with meropenem, percent inhibition; hits of this screen are not shown here; inhibition, % at 25 µM; 0.27% of 330,000 active;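 active = about 74% or more and at least 40 points above the plate without the antibiotic, then above 30% in a dose series; inconclusive = first-round hits that could not be retested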;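 note: growth measured after seven days incubation then overnight dye step; 0% = bacteria only wells and 100% = bacteria with antibiotic; twin plates without the antibiotic show which effects depend on it; some results filed as inactive read as strong as hits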
Arbovirus inh repeat: also measured in Arbovirus inh; calls as there; inhibition, %; measured here: 10K subset replicate screen; many hits read low in the repeat;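 first of two repeat runs on a subset; 0% = infected and 100% = uninfected wells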
* hit, by the source's call; ? = inconclusive; · = no result given. Only part of the results is shown, so the mix of outcomes need not match the whole.

SMILES | RecA splice inh | YopH PTP inh | Mtb H37Rv | Arbovirus inh | Mtb bLac sens | others
CCC1Nc2ncnc(N3CCCCC3)c2N(Cc2ccc(Br)cc2)C1=O (centres undefined) | 7.4 | · | · | · | -3
CCOC(=O)c1c(C)c(C(=O)NCCN2CCOCC2)c(C)n1C | 1.7 | -16 | -3% | 17 | -1
Cc1ccc(/C=N/n2c(-c3ccc(Cl)cc3)n[nH]c2=S)o1 | 1.4 | · | 8% | · | -8
COC(=O)C1=C(C)Nc2c(c(=O)n(C)c(=O)n2C)C1c1ccc(Cl)cc1 (centres undefined) | 1.2 | -36 | -2% | 8 | 6
Cc1nc2nc[nH]n2c(=O)c1C/C=C/c1ccccc1 | -0.3 | · | -3% | 12 | -3
O=C(Nc1ccc(Oc2cccnc2)cc1)c1ccccc1F | 0.4 | -28 | -5% | -6 | -10
Cc1ccc(N=Nc2c(N)[nH]n3c(=O)cc(-c4ccccc4)nc23)cc1 | 1.1 | 1 | ? | -28 | 95
CC(C)CC(NC(=O)C(CC(C)C)NC(=O)C(Cc1ccc(OCc2ccccc2)cc1)NC(=O)OC(C)(C)C)C(N)=O (centres undefined) | 1.8 | · | 1% | 0 | 0
COC(=O)c1ccc(COc2ncnc3c(Cl)cc(Cl)cc23)o1 | -3.4 | -5 | -10% | 3 | ?
COC(=O)CC(c1ccc(C(C)C)cc1)n1cccc1 (centres undefined) | 0.8 | · | -4% | -7 | 1
COCCNS(=O)(=O)c1ccc(F)c(OC)c1 | -3.9 | -6 | -5% | 2 | 9
O=C(CC1SC(=O)N(c2ccccc2)C1=O)Nc1ccc(Br)cc1 (centres undefined) | · | · | -6% | · | -1

Entries listed so far that have a halogen (7):
SMILES | RecA splice inh | YopH PTP inh | Mtb H37Rv | Arbovirus inh | Mtb bLac sens | others
CCC1Nc2ncnc(N3CCCCC3)c2N(Cc2ccc(Br)cc2)C1=O (centres undefined) | 7.4 | · | · | · | -3
Cc1ccc(/C=N/n2c(-c3ccc(Cl)cc3)n[nH]c2=S)o1 | 1.4 | · | 8% | · | -8
COC(=O)C1=C(C)Nc2c(c(=O)n(C)c(=O)n2C)C1c1ccc(Cl)cc1 (centres undefined) | 1.2 | -36 | -2% | 8 | 6
O=C(Nc1ccc(Oc2cccnc2)cc1)c1ccccc1F | 0.4 | -28 | -5% | -6 | -10
COC(=O)c1ccc(COc2ncnc3c(Cl)cc(Cl)cc23)o1 | -3.4 | -5 | -10% | 3 | ?
COCCNS(=O)(=O)c1ccc(F)c(OC)c1 | -3.9 | -6 | -5% | 2 | 9
O=C(CC1SC(=O)N(c2ccccc2)C1=O)Nc1ccc(Br)cc1 (centres undefined) | · | · | -6% | · | -1

Quoted at random: 2 compounds from above.
SMILES | RecA splice inh | YopH PTP inh | Mtb H37Rv | Arbovirus inh | Mtb bLac sens | others
O=C(CC1SC(=O)N(c2ccccc2)C1=O)Nc1ccc(Br)cc1 (centres undefined) | · | · | -6% | · | -1
COC(=O)CC(c1ccc(C(C)C)cc1)n1cccc1 (centres undefined) | 0.8 | · | -4% | -7 | 1

Later entries:
SMILES | RecA splice inh | YopH PTP inh | Mtb H37Rv | Arbovirus inh | Mtb bLac sens | others
Cc1cc(C)n(C(CC(=O)N2CCc3ccccc3C2)C(=O)O)n1 (centres undefined) | 2.9 | -22 | -2% | 13 | 1 | Arbovirus inh repeat=1
COc1ccc(C(=O)NC(=S)Nc2ccc3oc(=O)ccc3c2)cc1OC | -1.0 | 3 | 8% | 11 | -2
COc1ccccc1C(=O)N/C(=C\c1cn(C)c2ccccc12)C(=O)NCCCN1CCOCC1 | -1.4 | · | · | · | 3
COC(=O)C1(C(=O)OC)NOC2C(=O)N(c3ccc(Cl)cc3Cl)C(=O)C21 (centres undefined) | · | -55 | -8% | -3 | 7
CCCCS(=O)(=O)NC1=NCN(Cc2ccco2)CN1 | 0.6 | -41 | -8% | 6 | -1
CCOC(=O)CN1C(=O)N(CC)C(C)=C(C(=O)OC)[C@@H]1c1ccccc1 | -0.4 | · | 13% | · | -14
CN(Cc1ccccc1)C(=O)C1CCCN(Cc2ccc(Cl)cc2)C1 (centres undefined) | -0.4 | -3 | -4% | -5 | -11
CCN(CC)CCOC(=O)c1ccc(NC(=O)CCNC(=O)Cn2ccc3ccccc3c2=O)cc1 | -2.8 | -25 | -8% | 1 | 1
O=C(Cn1nc([N+](=O)[O-])nc1Br)NC1CCCCC1 | -1.5 | · | · | · | -3
Cc1cccc(NC(=O)c2cn(-c3ccccc3)nc2-c2ccccc2)c1 | 1.6 | -30 | -8% | -2 | 1
CN(C)CCN(C(=O)c1ccc(C(=O)c2ccccc2)cc1)c1nc2cc3c(cc2s1)OCCO3 | 2.8 | · | · | · | 11
COc1ccc(C(=O)C2CC2c2ccc3c(c2)OCO3)cc1 (centres undefined) | 11 | · | 1% | -7 | 8
CC1Cc2ccccc2N1S(=O)(=O)c1cccc(C(=O)N2CCN(c3ncccn3)CC2)c1 (centres undefined) | 5.4 | · | 1% | 38* | -3
CCC(C(=O)OCC(=O)Nc1cc(OC)ccc1OC)c1ccccc1 (centres undefined) | 3.6 | · | 6% | -2 | 2
Cc1c(C#N)c(O)n(CCO)c(=O)c1N=Nc1ccc(S(N)(=O)=O)cc1 | -4.8 | · | 4% | 2 | 8
COc1cccc(C(=O)CC(C(=O)O)c2ccc(Cl)cc2)c1 (centres undefined) | 1.9 | · | · | · | -2
O=C(CN1C(=O)COc2ccccc2C1=O)c1ccc2c(c1)OCCO2 | -1.8 | · | · | · | ?
Cc1[nH]nc2c1C(=O)CC(C)(C)C2 | 3.2 | -28 | 5% | -1 | -3 | Arbovirus inh repeat=1
C[n+]1ccc(/C=C/c2cccs2)cc1 | -0.8 | · | -3% | · | -3
CCc1ccc(N/C(SCc2ccccc2C)=C(/C#N)C(=O)NCc2ccco2)cc1 | -0.6 | -38 | 13% | 2 | 17
Cc1ccc2ncc(NC(=O)c3ccc(F)cc3)c(=O)n2c1 | 2.0 | 5 | 7% | -2 | -4
COc1cc(NC(=O)c2c(-c3ccccc3Cl)noc2C)c2ncccc2c1 | · | · | · | -6 | -5 | Arbovirus inh repeat=-2
COc1cc(/C=N/NC(=O)Cc2ccccc2)cc(OC)c1OC | -0.5 | · | · | · | 6
CC1=CC(C)(C)N(C(=O)CSc2nnc(-c3ccccc3)o2)c2ccc(C)cc21 | 8.5 | -46 | 7% | 14 | 0 | Arbovirus inh repeat=-7
CCc1nc(SCC(=O)c2cccc([N+](=O)[O-])c2)n[nH]1 | 1.8 | -22 | -7% | 3 | 0
Cc1cc(C)c(C#N)c(Oc2ccc(O)cc2)n1 | 0.4 | -26 | 9% | -4 | -5 | Arbovirus inh repeat=-4
CCOC(=O)CNC(=S)N(Cc1cccs1)C1CCCC1 | 3.5 | -14 | -3% | 3 | -4
COCc1cccc(NC(=O)Cc2cccc3ccccc23)c1 | 1.0 | · | -1% | -2 | 1
CCn1c(C)nc2cc(C(=O)N=Nc3c(O)[nH]c4ccccc34)ccc21 | -4.2 | -33 | -3% | 2 | 13
CCCCn1c(N)c(N(Cc2ccccc2OC)C(=O)COc2ccc(C)cc2)c(=O)[nH]c1=O | -5.1 | · | · | · | -1
COc1cc2nc(C3CCC3)n(NC(=O)C3CCC3)c(=O)c2cc1OC | 3.1 | -14 | 2% | 0 | -1
O=C(CNS(=O)(=O)c1ccc(Br)s1)NCc1ccc2c(c1)OCO2 | -3.3 | -46 | 0% | 7 | -9
O=C(NCc1ccc2c(c1)OCO2)C1CCN(c2nccc(C(F)(F)F)n2)CC1 | -0.8 | · | -3% | · | 1
Cc1ccc(Cn2cnc3c(cnn3C(C)(C)C)c2=O)cc1 | 8.0 | · | 3% | 8 | -3
CCN(CC(=O)Nc1ccc2c(c1)OCCO2)C(=O)C1CC(=O)N(c2ccc(OC)cc2OC)C1 (centres undefined) | 0.8 | · | · | · | -10
COc1cc(NC(=O)Cc2ccccc2OC)cc(OC)c1 | 1.5 | -15 | -3% | -3 | -2
Cc1ccc(C)n1-c1ccc(C(=O)NN=C2CCCC2)cc1 | -1.7 | · | 7% | -1 | -14
CCOc1ccc(CCNC(=O)C2CCN(S(=O)(=O)N3CCCCC3)CC2)cc1OCC | 2.2 | -29 | 3% | 3 | -7
CCCOc1ccc(C(=O)Nc2c[nH]c(=O)[nH]c2=O)cc1 | -1.2 | -30 | 3% | -6 | 1
COc1ccc(/C=C2/SC(=O)N(CCCCCC(=O)Nc3ccccc3C(=O)O)C2=S)cc1 | 4.4 | · | 9% | 28 | 5
COCCSc1ccccc1C(=O)Nc1nccs1 | 0.3 | -31 | -2% | 2 | 3
O=C(O)c1ccc(NC(=O)C2(c3ccccc3)CCCC2)cc1 | 0.1 | · | -7% | · | -1
Cc1cnn(-c2cc(N/N=C/c3ccccc3F)ncn2)c1 | 1.6 | -32 | · | -26 | -6
CCOC(=O)C(NC(C)=O)(Nc1ccc(S(=O)(=O)Nc2onc(C)c2C)cc1)C(F)(F)F (centres undefined) | -2.3 | -8 | 7% | 7 | -1
CSc1ncc(C(=O)Nc2ccc(C(C)=O)cc2)c(C)n1 | 2.4 | · | · | · | 90
O=[N+]([O-])c1ccc(N2CCN(S(=O)(=O)c3ccccc3[N+](=O)[O-])CC2)cc1NCc1cccnc1 | -0.8 | -15 | -2% | 7 | 5
CCOc1cc(NC(=S)NCC(C)C)c(OCC)cc1NC(=O)c1cccs1 | -0.7 | -17 | -6% | -2 | 1
COc1ccc(O)c2c(=O)c3c(OC)cc4c(c3oc12)C1C=COC1O4 (centres undefined) | -0.2 | · | -4% | · | -4
Cc1ccc(-c2csc(N3CCN(c4cc5c(cc4Cl)nc(C)n5CCN4CCCCC4)CC3)n2)cc1 | 19 | · | · | · | 98
Cc1ccc2nc(-c3ccc(NS(C)(=O)=O)cc3)cc(-c3ccccc3)c2c1 | 5.9 | -20 | 65% | -30 | 37
CC(=O)Oc1cccc2c1C(=O)c1c(OC(C)=O)cc(C(=O)O)cc1C2=O | 20 | 18 | -7% | 3 | 94
CCOC(=O)Cc1sc(N)nc1C | -0.3 | -38 | 2% | 14 | 0
CC(C)[C@H](NC(=O)CCn1nnc2ccccc2c1=O)C(=O)O | · | -35 | -12% | -3 | 7
COCC(C)n1c(C)cc(C(=O)COC(=O)c2oc3ccccc3c2C)c1C (centres undefined) | -0.1 | -22 | -8% | 4 | -3
N#Cc1ccc(C(=O)Nc2nnc(-c3cccs3)o2)cc1 | 2.3 | · | · | -9 | 97
N#C/C(=C\Nc1ccccc1SC(F)(F)F)c1nc(-c2ccc(F)cc2)cs1 | -2.7 | -13 | 2% | 2 | 0
CC1C(=O)C(C)C(c2ccc(Cl)cc2)NC1c1ccc(Cl)cc1 (centres undefined) | 10 | · | · | · | 9
COc1ccc(-c2cc(C(=O)N3CCN(c4ccccc4OC)CC3)no2)cc1OC | -1.8 | · | 5% | -5 | 6
COc1ccc(-c2noc(CN(C(=O)C(C)(C)C)C(C)C)n2)cc1 | 1.2 | 18 | 5% | -6 | 5
CN1CCc2cc3c(c4c2[C@H]1[C@H](O)c1ccccc1-4)OCO3 | -10 | 101* | 18% | -33 | 100
The results go on:
SMILES | RecA splice inh | YopH PTP inh | Mtb H37Rv | Arbovirus inh | Mtb bLac sens | others
Cc1cc(C(=O)Cn2nc(C(=O)O)c3ccccc3c2=O)c(C)n1CC(F)(F)F | 3.7 | · | 0% | 10 | -1
CCC(CC)C(=O)c1c[nH]c(C(=O)NCCCn2ccnc2)c1 | -0.4 | -41 | -8% | -4 | -7
COc1ccc(C)cc1NC(=O)NC1CCN(Cc2ccccc2)CC1 | -0.8 | 2 | -9% | 6 | 99
O=C(CN1CC(c2ccccc2)CC1=O)N/N=C/c1cc(Br)ccc1O (centres undefined) | 14 | -18 | 9% | -14 | -1
CN1CCN(C(=O)c2cc(Cl)ccc2NC(=O)c2ccc(Cl)cc2Cl)CC1 | 2.4 | · | · | · | -13
Cc1ccc(CNC(=O)/C=C/c2ccc(Br)o2)cc1 | 7.0 | -27 | 1% | -5 | 3
CCOc1cc(S(=O)(=O)N2CCN(Cc3ccccc3)CC2)ccc1Br | · | -9 | 8% | -1 | -1
c1cnc(Oc2ccc(-c3nnco3)cc2)cn1 | 0.6 | 4 | -12% | 6 | -5
CC(=O)Nc1ccc(S(=O)(=O)Nc2nc(C)cc(-n3nc(C)cc3C)n2)cc1 | 2.9 | -47 | -5% | 8 | 2 | Arbovirus inh repeat=-2
CNC(=S)NCc1ccc(OC)cc1 | -0.4 | -28 | -1% | -7 | 1
O=C(CN1C(=O)/C(=C/c2ccc(C(F)(F)F)cc2)Sc2ccccc21)NCCCN1CCOCC1 | -1.9 | · | · | · | 7
O=[N+]([O-])c1cc(S(=O)(=O)N2CCCCC2)ccc1NCc1cccc(Cl)c1 | 5.3 | 8 | -5% | 10 | 0
